D2 ag: Beta-Arrestin HTS for Positive Allosteric Modulators of the Human D2 Dopamine Receptor: Agonists; D(2) dopamine receptor (Homo sapiens), P14416; DiscoveRx PathHunter D2 beta-arrestin, luminescence, 90 min; 100% = 57 uM dopamine signal; activation, % (test concentration not listed); 0.084% of 360,000 active; AID 624465, 2012; in the data active = activation above about 40%; inconclusive = about 15% to 40%; inactive = below about 15%; note: compound concentration not given in the record; the text of the record calls up to 30% inactive
Target sequence (P14416 whole entry, looked up): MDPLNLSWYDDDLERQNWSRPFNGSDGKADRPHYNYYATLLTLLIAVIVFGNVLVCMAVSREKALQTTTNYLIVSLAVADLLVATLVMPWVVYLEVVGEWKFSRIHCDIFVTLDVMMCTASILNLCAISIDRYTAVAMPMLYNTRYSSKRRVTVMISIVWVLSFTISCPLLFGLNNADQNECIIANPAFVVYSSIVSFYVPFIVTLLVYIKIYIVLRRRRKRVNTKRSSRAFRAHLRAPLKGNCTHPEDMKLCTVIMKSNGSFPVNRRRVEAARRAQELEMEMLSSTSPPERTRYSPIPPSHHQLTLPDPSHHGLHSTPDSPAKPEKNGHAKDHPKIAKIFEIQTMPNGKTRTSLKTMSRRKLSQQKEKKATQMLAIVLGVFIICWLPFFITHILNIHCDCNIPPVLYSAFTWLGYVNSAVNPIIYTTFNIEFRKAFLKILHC
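DiscoveRx PathHunter D2 beta-arrestin cells (2,100/well) attached overnight, then compound-stimulated 90 min at 37 C in HBSS/10 mM HEPES/0.1% Tween-20 buffer; beta-galactosidase complementation read by luminescence after 1 h at ambient temperature. Dopamine 57 uM final (EC100) as control.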
Sfp PPTase inh: qHTS Assay for Inhibitors of Bacillus subtilis Sfp phosphopantetheinyl transferase (PPTase); AID 1490, 2009; Potency, µM, without a hit: max response, negative = inhibition, usual class: inhibitors; 3.5% of 310,000 active; Biochemical Sfp PPTase activity, qHTS; 4'-phosphopantetheinyl transferase ffp (Bacillus subtilis), Q9F4F7; active = well fitted inhibition curve with a large enough effect; inconclusive = small, poorly fitted or top-dose-only effect, or another doubt; inactive = no such curve, though single readings can be large or run the other way;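 note: the enzyme is Sfp with the accession as filed and its product quenches rhodamine fluorescence; potency is the fitted concentration of half-maximal effect; 0% = enzyme reaction without inhibitor and -100% = no enzyme wells; top concentration of the series not given in the record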
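Reaction rates are the 30-min fluorescence difference (ex 525, em 598 nm) in wells containing 15 nM Sfp, 5 uM rhodamine-CoA and 12.5 uM BHQ-2-YbbR at pH 7.6 with 10 mM MgCl2.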
ClpP mod: qHTS Assay for Activators of ClpP; AID 651965, 2013; ATP-dependent Clp protease proteolytic subunit (Bacillus subtilis (strain 168)), P80244; purified B. subtilis ClpP, FRET peptide cleavage, 20 min; Potency, µM (top dose mostly 57.5 µM), without a hit: at the top dose activity change, negative = active; 1.9% of 340,000 active; active = well fitted falling curve with a large enough effect; inconclusive = small, poorly fitted or top-dose-only effect; inactive = no such curve, though single readings can be large or run the other way; note: potency is the fitted concentration of half-maximal effect; the source files actives as falling curves though it sought activators and does not explain the sign; nearly all actives have a fitted effect of over 65% in size; many hits overshoot -100%
Target sequence (P80244 whole entry, looked up): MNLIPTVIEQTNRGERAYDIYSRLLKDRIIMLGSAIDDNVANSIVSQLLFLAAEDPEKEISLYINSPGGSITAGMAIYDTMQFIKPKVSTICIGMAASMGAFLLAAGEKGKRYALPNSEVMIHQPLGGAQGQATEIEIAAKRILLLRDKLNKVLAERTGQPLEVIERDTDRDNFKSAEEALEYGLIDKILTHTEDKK
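ClpP 10 microg/mL final, pH 8 Tris/KCl buffer with BSA, glycerol, Tween-20; compound pinned in; FRET-FV substrate; RT 20 min; Ex320/Em430; ΔFRET vs ADEP 5.8 microM, DMSO, no enzyme.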
gsp ag: qHTS for Agonist of gsp, the Etiologic Mutation Responsible for Fibrous Dysplasia/McCune-Albright Syndrome: qHTS; gsp mutant cells, cAMP HTRF, 30 min; control for the full effect not named in the record; Potency, µM (doses to about 76.9 µM), inactives show at the highest dose activation (cAMP increase), actives largely listed as activators; 0.13% of 340,000 active; AID 624287, 2012; active = well fitted activation curve with a large enough effect; inconclusive = small, poorly fitted or top-dose-only effect, or another doubt; inactive = no such curve, though single readings can be large or run the other way; cell line not stated here;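 note: phosphodiesterase inhibitor Ro 20-1724 added with compounds to block cAMP breakdown; potency is the fitted concentration of half-maximal effect; nearly all actives have a fitted effect of over 60% in size; about a fifth of the inactives were tested at one dose only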
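Cells stably selected in G418 were plated at 2000/well, grown 16-24 hr, then given compounds in DMSO with the PDE inhibitor […] (300 uM solution added) for 30 min at 37C; cAMP was read by HTRF.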
Menin MLL FP FL: qHTS Assay for Inhibitors Targeting the Menin-MLL Interaction in MLL Related Leukemias: Competition With Fluorescein Labeled MLL-derived Peptide; Fluorescence polarization, fluorescein-MLL peptide displacement from menin; FP activity change, % at 61.4 µM; 290,000 tested, under 10 active; AID 1766, 2009; inconclusive = falling polarisation curve, or a change in total fluorescence; inactive = total fluorescence flat and polarisation flat or rising; no compound was filed as active; the % refers to the polarisation; negative = inhibition;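 note: % of control where 0% means no effect; inhibitors lower the polarisation; unlabelled MLL peptide was the positive control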
gsp antag: qHTS for Antagonists of gsp, the Etiologic Mutation Responsible for Fibrous Dysplasia/McCune-Albright Syndrome: qHTS; gsp-mutant cells, cAMP HTRF, 30 min; control for the full effect not named in the record; Potency, µM (series often up to 76.9 µM), for inactives: at the highest dose activity change, negative = inhibition, hits mostly inhibitors; 0.4% of 340,000 active; AID 624288, 2012; active = falling curve of any shape with a large fitted effect; inconclusive = falling curve, mostly with a smaller effect; inactive = flat or rising curve; cell line not stated here;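 note: intracellular cAMP measured with PDE inhibitor Ro 20-1724 present during compound exposure; potency is the fitted concentration of half-maximal effect; % is set by controls: 0 for no effect and ±100 for the full control effect; nearly all actives have a fitted effect of over 65% in size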
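G418-selected cells were plated in DMEM/10% FBS for 16-24 h at 37C, then treated with compounds plus the PDE inhibitor […] (300 uM solution added) for 30 min at 37C. Intracellular cAMP was measured by HTRF after 30 min lysis at room temperature.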
PINK1 expr mod: A Quantitative High throughput Screen to Identify Chemical Modulators of PINK1 Expression. PINK1 immunofluorescence, high-content cytometry, 24 h. Potency, µM (doses to about 76.6 µM), for the others: at the highest dose activation (PINK1 increase), hits mostly activators. 0.2% of 410,000 active. AID 624263, 2012; active = well fitted activation curve with a large enough effect; inconclusive = small, poorly fitted or top-dose-only effect; inactive = flat fitted curve, though single readings scatter; cell line not stated here;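 note: potency is the fitted concentration of half-maximal effect; % of control where 0% means no effect; nearly all actives have a fitted effect of over 65% in size; a mitochondrial uncoupler was the plate control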
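PINK1 protein, normally rapidly degraded, was detected by immunofluorescence after 24 hour compound treatment of a stable cell line. Titration data (5 concentrations) came from laser-scanning cytometry, with CCCP-treated wells as controls.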
An asterisk follows results filed as active; ? = inconclusive; / = no result given; [ ] = dose if it differs, or a comment.

SMILES | D2 ag | Sfp PPTase inh | ClpP mod | gsp ag | Menin MLL FP FL | gsp antag | PINK1 expr mod
CCCCN(CCCC)CCNC(=O)CN1C(=O)COc2ccc(S(=O)(=O)N3CCOCC3)cc21 | -6.8 | 20.1% | 0.5% | ? | -0.5 | ? | 0.4%
CCCCn1c(N)c(N(CCOC)C(=O)COC(=O)CCOc2ccccc2C)c(=O)[nH]c1=O | -5.3 | / | 1.8% | 8.7% | / | 11.8% | 0.2%
C[C@@H]1CN([C@@H](C)CO)C(=O)CCCn2nncc2CO[C@@H]1CN(C)C(=O)Nc1ccc(N2CCN(C)CC2)cc1 | -4.0 | / | 1.8% | -38.3%[inhibitor] | / | / | -1.2%
CCn1nc(CC(=O)Nc2nnc(CC(=O)N3CCCCC3)s2)c2ccccc2c1=O | 0.2 | 4.6% | 1.5% | 3.9%[15.4 µM] | 0.4 | -3.9% | 1.0%
O=C(Nc1cccc2ccccc12)N1CCN(Cc2ccccc2)CC1 | -3.0 | 16.5% | ? | -14.7% | -9.2 | 0.6%[15.4 µM] | 0.5%
Cc1onc(-c2c(F)cccc2Cl)c1C(=O)Nc1cccc(S(=O)(=O)N2CCOCC2)c1 | 3.1 | / | / | -47.1%[inhibitor] | / | -15.1% | 1.9%
COc1cc(OC)cc(-c2nc(-c3cccs3)no2)c1 | -2.7 | 5.6% | 0.1% | -8.9%[15.4 µM] | 2.6 | -5.2% | 11.8%
O=C(c1cc2cc(F)ccc2[nH]1)N1CCN(Cc2ccc3c(c2)OCO3)CC1 | -2.7 | -7.3% | -9.2% | 1.1% | / | -9.1% | -1.9%
Cc1nc(C)c(C(=O)NNS(=O)(=O)c2ccccc2)s1 | 0.5 | -13.4% | / | 0.0%[15.4 µM] | 2.8 | 4.1% | 1.7%
COCC1CCN(C(=O)c2ccc(OC)c(OC3CCN(C(C)C)CC3)c2)CC1 | -6.8 | 11.2% | 1.1% | -30.3%[inhibitor] | / | 7.7% | 0.9%
N/C(=N\OC(=O)c1cnn(-c2ccccc2)c1C(F)(F)F)c1cc(C(F)(F)F)cc(C(F)(F)F)c1 | ? | 25.7% | 0.0% | 3.2%[15.4 µM] | 1.1 | -10.5% | 6.4%
CC(C)NS(=O)(=O)c1ccc(CCC(=O)N2CCc3ccccc3C2)cc1 | 2.3 | 10.5% | / | 20.3% | -7.4 | 4.1% | -5.1%
C=CCc1ccccc1OCCn1nnc2ccccc21 | 2.6 | -4.3% | -2.5% | -33.0%[inhibitor] | 1.4 | -2.3% | 1.2%
C=CCSc1ncccc1C(=O)NCc1ccccc1 | 2.0 | 14.0% | -1.7% | -36.2%[inhibitor] | 1.9 | -1.8% | -2.0%[38.3 µM]
O=c1cc(N/N=C/c2ccccc2)[nH]c(=O)[nH]1 | 3.5 | / | -2.6% | 12.7%[15.4 µM] | / | -14.7% | 5.1%
CC(C)(O)c1cc(=O)sc2nc3ccccc3n12 | -1.7 | 10.4% | 0.2% | 28.1% | 2.5 | -30.1% | -2.6%
COc1ccc(C(=O)NC(=S)NNC(=O)c2ccncc2)cc1Br | -2.4 | / | -6.1% | 21.4% | / | -14.1% | 4.4%
CN(C)S(=O)(=O)c1ccc(NC(=O)C2CC(=O)N(Cc3ccccc3Cl)C2)cc1 (stereo not drawn) | 1.5 | / | / | 34.0%[15.4 µM] | / | 1.6% | -2.9%
OCC1CCN(Cc2nc(Cc3ccccc3Cl)no2)CC1 | 2.1 | 6.1% | / | -1.4% | 0.0 | 9.0% | 0.3%
C(=Nc1cccc2c(N=Cc3ccco3)cccc12)c1ccco1 | -0.5 | -11.4% | 4.0% | -24.1% | ? | ? | 3.9%
CC1=NN(C(N)=S)C(=O)C1N=Nc1ccccc1[N+](=O)[O-] (stereo not drawn) | -4.8 | / | -3.1% | -53.2%[inhibitor] | / | / | -0.4%
CN(C)CCCN1C(=O)C(O)=C(C(=O)c2cc3ccccc3o2)C1c1ccccn1 (stereo not drawn) | -1.4 | / | / | 26.4%[15.4 µM] | / | 34.6% | 0.9%
CCCc1cc(=O)oc2c(C)c(OCC(=O)Nc3ccc(CN4CCOCC4)cc3)ccc12 | 5.2 | 1.5% | 3.7% | -15.4% | / | -7.9% | 8.2%
Cc1ccc(NC(=O)Cn2nnc3ccccc32)cc1 | 5.1 | -0.1% | / | 4.2% | -1.3 | -3.8% | -0.5%
Cc1cc2cc3c(cc2nc1SCC(=O)Nc1nc(C)c(C)s1)OCO3 | -0.7 | 25.1µM* | -12.2% | ? | 3.4 | -9.7% | ?

Additional structures.
SMILES | D2 ag | Sfp PPTase inh | ClpP mod | gsp ag | Menin MLL FP FL | gsp antag | PINK1 expr mod
CC(=O)N1CCN(C(=O)CSc2nnc(C)n2-c2ccccc2)CC1 | -4.0 | 3.8% | 1.4% | -0.8% | -4.4 | 7.0% | 2.0%
O=c1ccc(-c2ccccc2)nn1Cc1ccccc1F | 3.6 | -8.5% | / | -0.5% | 2.1 | -19.6% | 3.3%
Cc1ccc(-n2c(SCC(=O)NCC3CCCO3)nc3n[nH]c(C)c3c2=N)cc1Cl (stereo not drawn) | -1.0 | 6.6% | -4.3% | -44.2%[inhibitor] | 2.2 | -11.5% | 7.5%
COc1ccc2c(CC(=O)OCC(=O)Nc3ccc4c(c3)OCO4)coc2c1 | 0.4 | 3.3% | -0.9% | 2.5% | 5.5 | -6.0% | -1.3%
CCC1/C(=N\O)CC(c2ccco2)NC1c1ccco1 (stereo not drawn) | 0.9 | 0.2% | -0.5% | -33.3%[inhibitor] | 2.9 | ? | -2.7%
O=C(COC(=O)c1cc([N+](=O)[O-])ccc1N1CCOCC1)c1ccc(Br)cc1 | -0.3 | / | -3.4% | -7.4% | / | 7.9% | 2.7%
Cn1c(Cn2c3ccccc3c3ccccc32)n[nH]c1=S | -6.5 | 12.3% | 0.0% | 0.2% | 2.7 | -9.0% | 2.5%
O=C(CSc1nccc(=O)[nH]1)c1ccco1 | -5.9 | -11.1% | / | -1.7%[15.4 µM] | -1.7 | 0.1% | 1.7%
O=C(Nc1ccc(F)cc1)N1CCCC(c2nc3c(nnn3Cc3ccccc3Cl)c(=O)[nH]2)C1 (stereo not drawn) | 4.8 | 3.6% | / | 2.1%[15.4 µM] | -2.6 | -45.1% | 0.5%
O=[N+]([O-])c1cccc(C(=S)N2CCN(c3ccccc3)CC2)c1 | -0.2 | 31.6µM* | -1.5% | ? | 1.9 | -15.3% | 1.1%
CN(CC(=O)Nc1cccc(F)c1)C(=O)c1cn(-c2ccccc2)nc1-c1ccc(F)cc1 | 0.4 | / | -3.1% | -18.3% | / | -19.5% | ?
COc1cc(OC)c(OC)cc1CN1CCN(c2ccccc2OC)CC1 | 0.7 | -16.5% | -1.8% | -14.1% | 0.6 | 2.0% | 7.7%[38.3 µM]
COc1ccc(S(=O)(=O)NC(CC(=O)O)c2ccco2)cc1 (stereo not drawn) | 0.0 | 11.0% | 2.6% | 3.3% | 3.8 | 10.8% | -0.8%
COc1cc(CN2CCNC(=O)C2CC(=O)N2CCCO2)cc(OC)c1 (stereo not drawn) | 0.7 | 16.4% | / | -2.4% | 0.2 | 6.0% | -3.6%
CCO[C@H]1OC(C(=O)N2CCOCC2)=C[C@@H](c2coc3ccccc3c2=O)[C@@H]1CCCO | 0.6 | 13.1% | -3.2% | / | 0.4 | 5.2% | 0.3%
CCCCOCCCNC(=O)CCCOc1ccccc1 | -2.0 | 1.8% | 0.7% | -39.6%[inhibitor] | 2.3 | 7.7% | 1.2%
COc1ccc2[nH]cc(/C=N/NS(=O)(=O)c3ccc(C)cc3)c2c1 | -4.4 | 12.0% | 2.0% | -3.2% | 3.7 | -21.7% | 5.8%
C=CCSc1nnc(-c2nnc(SCC=C)n2-c2ccccc2)n1-c1ccccc1 | -1.9 | 2.5% | 0.2% | -38.2%[inhibitor] | -2.0 | -10.9% | -0.7%
CC(C)CN(C(=O)CN1CCCCCC1)c1c(N)n(CC(C)C)c(=O)[nH]c1=O | -2.2 | 12.7% | 0.4% | 8.4%[15.4 µM] | 4.0 | -7.3% | 8.3%
O=C(NC1CCCCCC1)c1ccc(CS(=O)(=O)Cc2ccccc2F)o1 | -1.9 | 6.9% | -0.2% | -26.8% | / | -5.6% | -0.2%
COCCN1C(=O)N(c2cccc(OC)c2)C(=O)C1CC(=O)Nc1ccc(OC)cc1 (stereo not drawn) | -8.4 | 11.7% | 1.2% | -4.8%[15.4 µM] | -0.8 | -0.5% | 1.9%
Cc1ccccc1N(CC(=O)O)S(C)(=O)=O | -3.6 | -12.3% | -4.3% | 0.0% | 1.8 | -2.7% | 0.3%
Cc1cc(Cl)c2oc(C(=O)N3CCN(c4cccc(C)n4)CC3)c(C)c2c1 | -4.9 | -13.9% | -2.2% | -13.3%[15.4 µM] | 1.2 | 0.2% | 5.6%
CC(OC(=O)CNC(=O)c1ccc2ccccc2c1)C(=O)NC1CCCCC1C (stereo not drawn) | -5.3 | 13.6% | / | 7.7%[15.4 µM] | / | -15.3% | 1.5%
O=C(Nc1cc(S(=O)(=O)N2CCOCC2)ccc1Cl)c1ccncc1 | -2.4 | / | 0.3% | 7.5%[15.4 µM] | / | 6.9% | -0.4%
O=C(NC1CCCCC1)C(c1cccnc1)N(C(=O)c1csnn1)c1ccccc1F (stereo not drawn) | -3.4 | 8.7% | 0.0% | -4.2%[15.4 µM] | -2.3 | 3.7% | 2.8%
Cc1ccc(C(=O)c2cnc3ccccc3c2-c2ccccc2)cc1 | -4.2 | -18.1% | 1.0% | -4.0% | 2.6 | -8.4% | -0.2%

Source: PubChem BioAssay (National Center for Advancing Translational Sciences (NCATS))
